Mtb growth – M. tuberculosis H37Rv growth inhibitors, H37Rv strain (AID 1626) | M. tuberculosis H37Rv growth inhibition; higher % means a stronger effect | one-dose inhibition, % at 10 µM; IC50 in µM for titrated hits | 220,000 tested, 0.95% active;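 active = confirmed in a dose series; inconclusive = inhibition above 80% but not taken into the dose series; inactive = below 80% or under 30% at every dose of the series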;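 also: bacteria incubated seven days before Alamar blue readout; 0% = bacteria only wells and 100% = bacteria with antibiotic wells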
RecA splice inh – blocks M. tuberculosis RecA intein splicing; cell-free RecA intein splicing, fluorescence; inhibition, %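 (about 9 µM by stock and volumes)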; 290,000 tested, 0.75% active; in the data active = inhibition above about 30%; inconclusive = no clear call, values can overlap the other calls;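 also: 0% = vehicle wells and 100% = reference inhibitor control wells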
Target sequence (P9WHJ3 whole entry, looked up, canonical isoform): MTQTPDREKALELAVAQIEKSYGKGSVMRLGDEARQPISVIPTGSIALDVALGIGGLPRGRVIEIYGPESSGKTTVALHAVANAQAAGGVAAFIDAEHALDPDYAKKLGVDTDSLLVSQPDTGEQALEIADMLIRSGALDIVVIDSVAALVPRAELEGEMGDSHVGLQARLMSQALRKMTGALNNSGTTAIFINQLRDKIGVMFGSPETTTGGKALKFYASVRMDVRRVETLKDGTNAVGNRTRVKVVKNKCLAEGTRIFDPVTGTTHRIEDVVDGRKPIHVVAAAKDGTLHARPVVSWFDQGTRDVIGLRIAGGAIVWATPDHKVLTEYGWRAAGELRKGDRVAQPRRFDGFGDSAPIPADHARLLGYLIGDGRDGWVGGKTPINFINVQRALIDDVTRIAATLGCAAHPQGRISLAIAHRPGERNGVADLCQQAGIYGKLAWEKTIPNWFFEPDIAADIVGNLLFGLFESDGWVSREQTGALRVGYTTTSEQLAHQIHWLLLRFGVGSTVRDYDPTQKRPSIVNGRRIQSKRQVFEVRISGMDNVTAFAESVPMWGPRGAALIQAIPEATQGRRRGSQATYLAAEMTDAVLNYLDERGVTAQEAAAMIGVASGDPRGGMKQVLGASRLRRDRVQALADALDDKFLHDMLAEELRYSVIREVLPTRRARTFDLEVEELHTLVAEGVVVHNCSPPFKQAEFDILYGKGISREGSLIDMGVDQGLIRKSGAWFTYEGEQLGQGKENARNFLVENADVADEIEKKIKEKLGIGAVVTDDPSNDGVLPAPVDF
Mtb bLac sens – beta-lactam sensitization of Mtb H37Rv; M. tuberculosis H37Rv growth with meropenem, percent inhibition; hits of this screen are not shown here; inhibition, % at 25 µM; 330,000 tested, 0.27% active; AID 434955;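 active = about 74% or more and at least 40 points above the plate without the antibiotic, then above 30% in a dose series; inconclusive = first-round hits that could not be retested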;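 also: growth measured after seven days incubation then overnight dye step; 0% = bacteria only wells and 100% = bacteria with antibiotic; twin plates without the antibiotic show which effects depend on it; some results filed as inactive read as strong as hits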
Arbovirus anti – arbovirus infection inhibition | arbovirus infection cell-based antiviral screen | inhibition, % at 10 µM | 200,000 tested, 0.37% active | AID 1251;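 active = inhibition from about 30%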;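 also: bluetongue infection of BSR cells; cell survival read as ATP light after 72 h; 0% = infected wells without compound and 100% = uninfected wells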
YopH PTP inh – YopH (Yersinia) phosphatase inhibition. fluorescence Ex485/Em525. 140,000 tested, 0.16% active. inhibition, %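 (about 10 µM by stock and volumes)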. AID 898;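 active = inhibition of 50% or more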;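 also: controls were vehicle for no effect and minimum signal wells for full effect; inactives centre near -20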
Arbovirus anti repeat – also measured in Arbovirus anti; calls as there; inhibition, %; measured here: 10K subset replicate screen; many hits read low in the repeat;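 first of two repeat runs on a subset; 0% = infected and 100% = uninfected wells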
Numbers without * were called inactive; ? = inconclusive; . = no result given. The list is partial; count on the stated rates, not on these rows.

SMILES | Mtb growth | RecA splice inh | Mtb bLac sens | Arbovirus anti | YopH PTP inh | others
CCOC(=O)C1CCN(S(=O)(=O)c2ccc3c(c2)CC(=O)N3C)CC1 | . | 0.0 | -7 | . | .
N#C/C(=C\c1ccc(Br)s1)C(=O)N1CCN(c2ccccc2)CC1 | 6% | 4.1 | 3 | 14 | -18
COc1cc2c(cc1OC)C(c1ccc(-c3ccc(Cl)cc3Cl)o1)=NCC2 | . | 0.2 | 11 | 7 | -26
CC(c1ccccc1)N1C(=O)C2C3CCC(C3)C2C1=O (centres undefined) | -13% | -3.0 | -9 | 0 | -21
C=C1CCC2[C@](C)(CO)[C@H](O)CC[C@@]2(C)[C@@H]1/C=C/C1=CCOC1=O (some centres undefined) | . | 6.2 | -1 | . | .
CC(C)NC(=O)Cn1c(=O)n(CC(=O)N2CCCCC2)c(=O)c2sccc21 | . | -0.6 | ? | . | .
COc1cccc(COc2ccc3ccc(=O)oc3c2)c1 | . | 4.1 | 6 | . | .
COc1ccc(-c2nnc(SCC(=O)N3CCCC(C)C3)o2)c(OC)c1 (centres undefined) | 5% | -0.6 | 4 | 6 | -8
O=C(c1ccccc1)c1cc2c(cc1[N+](=O)[O-])OCCO2 | -3% | -22 | 2 | -10 | .
CSc1cccc(NC(=O)Nc2ccccc2C(N)=O)c1 | -9% | -4.9 | 1 | . | .

A draw from above in order of length of the SMILES, highest first:
SMILES | Mtb growth | RecA splice inh | Mtb bLac sens | Arbovirus anti | YopH PTP inh | others
C=C1CCC2[C@](C)(CO)[C@H](O)CC[C@@]2(C)[C@@H]1/C=C/C1=CCOC1=O (some centres undefined) | . | 6.2 | -1 | . | .
COc1cc2c(cc1OC)C(c1ccc(-c3ccc(Cl)cc3Cl)o1)=NCC2 | . | 0.2 | 11 | 7 | -26
O=C(c1ccccc1)c1cc2c(cc1[N+](=O)[O-])OCCO2 | -3% | -22 | 2 | -10 | .
CSc1cccc(NC(=O)Nc2ccccc2C(N)=O)c1 | -9% | -4.9 | 1 | . | .
COc1cccc(COc2ccc3ccc(=O)oc3c2)c1 | . | 4.1 | 6 | . | .

Following part:
SMILES | Mtb growth | RecA splice inh | Mtb bLac sens | Arbovirus anti | YopH PTP inh | others
CCC(c1nnnn1CCc1ccccc1)N(Cc1ccco1)Cc1cc2cc(C)cc(C)c2[nH]c1=O (centres undefined) | 19% | 9.9 | -3 | -8 | -34
O=C(O)c1nc(NCCc2ccccc2)ncc1Cl | . | -2.2 | 0 | . | .
CCn1c(=O)cc(OCC(=O)Nc2cccnc2)c2ccccc21 | -5% | -0.6 | -3 | -9 | -8
CC(C)c1ccc(C2CC(=O)N3CN(Cc4ccco4)CSC3=C2C#N)cc1 (centres undefined) | 0% | 8.9 | 1 | 1 | -15
O=C(CSc1nnc(-c2ccncc2)n1CCc1ccccc1)NCc1ccccc1 | -11% | 7.5 | -4 | 0 | -3
Brc1cnc(N2CCOCC2)nc1N1CCCCC1 | 2% | 1.8 | -4 | -7 | -4
CC(=O)N1c2c(cc(Br)cc2S(=O)(=O)NCc2cccnc2)CC1C (centres undefined) | -3% | 0.7 | -4 | 8 | 19
O=C(Nc1ccc(N2CCN(Cc3ccccc3F)CC2)cc1)c1ccccc1[N+](=O)[O-] | 4% | -1.1 | 0 | -4 | .
Cc1c(CN(C)Cc2cn(C)nc2-c2ccccc2F)[nH]c2ccccc12 | 1% | 2.8 | 6 | -6 | .
O=C(NC1(C(F)(F)F)NC(=O)N(c2ccccc2F)C1=O)c1ccncc1 (centres undefined) | -15% | 0.1 | -3 | -1 | -16
COc1ccc(-c2n[nH]c(C)c2-c2cc(OC)ccc2O)cc1 | -8% | -3.5 | -15 | 6 | -5
O=C1c2ccccc2C(=O)N1CCc1nn[nH]n1 | -3% | 2.2 | 8 | 6 | -12
O=C(c1cccc(C(F)(F)F)c1)C1CCCN(Cc2ncc[nH]2)C1 (centres undefined) | -6% | 38* | -1 | 9 | .
O=C(O)Cc1ccc(NC(=O)C(c2ccccc2)c2ccccc2)cc1 | -10% | -0.2 | -2 | 4 | .
CC(C)C(OC(=O)c1oc2ccccc2c1CSC1CCCCC1)C(=O)NC(N)=O (centres undefined) | -2% | 2.0 | 5 | 0 | .
Cc1ccc(NC(=O)COC(=O)c2ccc3c(c2)OCO3)cc1S(=O)(=O)N1CCCCC1 | 2% | -0.8 | 1 | -1 | -21
OC(COc1cccc2ccccc12)CN1CCN(c2ccccn2)CC1 (centres undefined) | 9% | 1.7 | -5 | -3 | -25 | Arbovirus anti repeat=5
COc1ccc(C(=O)N(CN2CCCC2=O)c2nccs2)cc1OC | -3% | -2.3 | ? | -9 | -40
CC(c1ccccc1)N1CNc2c(c(=O)n(C)c(=O)n2C)C1 (centres undefined) | -5% | -0.7 | 3 | 14 | -42 | Arbovirus anti repeat=8
C=CCn1c(=O)c2ccccc2n2c(SCc3cc(=O)n4ccsc4n3)nnc12 | -2% | . | -8 | 6 | -47
COc1ccc(-c2noc(-c3ccc(Br)o3)n2)cc1OC | -2% | -0.4 | 13 | 14 | 0
CN1C(=O)c2ccc(NC(=O)C3CC3)cc2C1=O | . | -2.8 | -10 | . | .
COc1ccc(Cl)cc1NC(=O)NC(C)C | 9% | 0.1 | 2 | -7 | .
CN1C(C(=O)NCc2ccco2)=CC(c2ccc(F)cc2)=NS1(=O)=O | . | -1.6 | -3 | . | .
Cc1noc(C)c1S(=O)(=O)Nc1c(C)n(C)n(-c2ccccc2)c1=O | 2% | 1.3 | 1 | 0 | 6
CCNC(=O)COC(=O)c1ccc(NS(=O)(=O)c2ccc3c(c2)OCCO3)cc1 | 0% | 0.2 | 6 | 10 | .
c1ccc2c(CN3CCN(C4CCCCC4)CC3)c[nH]c2c1 | 5% | 2.3 | -4 | 12 | -22
O=C(N/N=C1/CCS(=O)(=O)c2ccc(F)cc21)c1ccccn1 | -8% | -1.3 | 5 | -2 | .
Cc1c(S(=O)(=O)N2CCCCC2)c(=O)n(C)c(=O)n1C | . | -1.3 | -8 | . | .
COc1cc(C)c(NC(=S)NCCCN2CCOCC2)cc1OC | 2% | -3.4 | 1 | 1 | .

3 neighbouring compounds already listed:
SMILES | Mtb growth | RecA splice inh | Mtb bLac sens | Arbovirus anti | YopH PTP inh | others
O=C(N/N=C1/CCS(=O)(=O)c2ccc(F)cc21)c1ccccn1 | -8% | -1.3 | 5 | -2 | .
Cc1c(S(=O)(=O)N2CCCCC2)c(=O)n(C)c(=O)n1C | . | -1.3 | -8 | . | .
COc1cc(C)c(NC(=S)NCCCN2CCOCC2)cc1OC | 2% | -3.4 | 1 | 1 | .

Remaining list, next part.
SMILES | Mtb growth | RecA splice inh | Mtb bLac sens | Arbovirus anti | YopH PTP inh | others
CC1Oc2ccccc2C=C1/C=N/Nc1ccc(C(=O)O)cc1 (centres undefined) | 9% | -14 | 5 | . | .
O=C(CCc1ccccc1)NC(=S)Nc1cccc(C(=O)O)c1 | . | -0.5 | ? | . | .
Cc1cc(-c2nn3c(C)nnc3s2)ccc1NC(=O)C(C)(C)C | 5% | -1.2 | 6 | . | -22
CCSc1ncc(Cl)c(C(=O)N(Cc2ccc(N(C)C)cc2)C2CCS(=O)(=O)C2)n1 (centres undefined) | 3% | 0.9 | . | 2 | -21
O=C(COc1ccccc1-c1ccccc1)NN=C1CCCC1 | 0% | -0.7 | 4 | -8 | .
O=C(c1cc(-c2cccc(O)c2)on1)N1CCOCC1 | 0% | -0.9 | -8 | 5 | -31 | Arbovirus anti repeat=14
Cc1ccc(-n2cnc(N)c2C(=O)c2cccc([N+](=O)[O-])c2)cc1 | -2% | -0.3 | -1 | . | .
O=[N+]([O-])c1ccccc1CN1CCN(S(=O)(=O)c2ccccc2)CC1 | . | 3.2 | -5 | . | .
CCOc1ccc(C(=O)CSc2nnc3ccccn23)cc1 | 2% | 2.3 | -4 | 3 | 8
Cc1ccc(C(CC(=O)O)Nc2nc(N3CCCCC3)nc(N3CCCCC3)n2)cc1 (centres undefined) | 14% | 7.5 | 1 | 31* | -25
Cc1c(CCC(=O)N2CCC[C@H]2C(=O)O)c(=O)oc2c(C)c3oc4c(c3cc12)CCCC4 | . | 8.5 | 11 | . | .
COc1cc(/C=C(/C#N)C(=O)NC(C)c2ccccc2)cc(OC)c1O (centres undefined) | . | 9.2 | 0 | . | .
CCC(C)NC(=O)COC(=O)c1ccccc1OCC(=O)Nc1ccc(Br)cc1 (centres undefined) | 0% | 1.1 | 2 | 7 | -1
CCN(CC)S(=O)(=O)c1ccc(-c2nnc(SCC(C)=O)o2)cc1 | -4% | -0.5 | 0 | 6 | -19
COc1ccc(NCC(=O)n2c(C)c(C)c3ccccc32)cc1 | 65% | -3.0 | 74 | -16 | .
Cc1nc(C(F)(F)F)ccc1C(=O)NN1CCOCC1 | . | -4.0 | -12 | . | .
CCN(CC)C(=S)SC1CCCCN(C(=O)c2ccccc2)C1=O (centres undefined) | 4% | 5.0 | -4 | . | .
CNC(=S)N1N=C(c2ccc(Br)cc2)CC1c1ccc(Br)cc1 (centres undefined) | 7% | 16 | -1 | -2 | -12
O=S(=O)(c1ccccc1)c1nc(-c2ccco2)oc1N1CCCCC1 | . | -1.6 | -2 | . | .
c1ccc(N2CCOCC2)c(Nc2nc3ccccc3n3cnnc23)c1 | 8% | 0.2 | -4 | 4 | -38 | Arbovirus anti repeat=2

Reprinted at random: two compounds from above
SMILES | Mtb growth | RecA splice inh | Mtb bLac sens | Arbovirus anti | YopH PTP inh | others
Cc1ccc(C(CC(=O)O)Nc2nc(N3CCCCC3)nc(N3CCCCC3)n2)cc1 (centres undefined) | 14% | 7.5 | 1 | 31* | -25
c1ccc(N2CCOCC2)c(Nc2nc3ccccc3n3cnnc23)c1 | 8% | 0.2 | -4 | 4 | -38 | Arbovirus anti repeat=2

(continued)
SMILES | Mtb growth | RecA splice inh | Mtb bLac sens | Arbovirus anti | YopH PTP inh | others
Clc1cc2c(cc1/C=N/Nc1nc(N3CCOCC3)nc(N3CCOCC3)n1)OCO2 | -6% | 0.8 | -5 | 0 | .
COc1ccc(S(=O)(=O)N2CCC(C(=O)NC3CCCC3)CC2)cc1C | . | 0.6 | -9 | . | .
O=C(CSc1nnc(NC(=O)c2cccc(F)c2)s1)NCc1ccco1 | . | -0.3 | -10 | . | .
COc1ccc(/C=N/NC(=O)c2ccc(N3CCCC3=O)cc2)cc1 | . | -2.2 | 5 | . | .
CCn1c(SCC(=O)Nc2ccccc2OC)nnc1-c1cnccn1 | 7% | -1.3 | 1 | -8 | -59
O=C(Nc1cccc(-c2cn3c(n2)SCC3)c1)c1ccc2c(c1)OCO2 | -3% | 4.0 | -3 | 9 | .
CC(=O)C1=C(O)C(=O)N(Cc2ccccc2)C1c1ccco1 (centres undefined) | 9% | 2.6 | -5 | 4 | -21
COc1ccc(NC(=O)CSc2nnc(Cn3nnc4ccccc43)n2C)cc1 | 3% | . | -18 | -9 | -19
CCCCCNCc1ccc(OCc2ccc(Cl)nc2)c(OC)c1 | 4% | 2.1 | 15 | 7 | 10
Cc1ccc(S(=O)(=O)N[C@H](C(=O)N2CCC(C(=O)N[C@@H](CC(=O)O)C(=O)O)CC2)C(C)C)cc1 | . | -0.4 | 1 | . | .
Cc1nn(Cc2noc(C(=O)NC3CCC(C)CC3)n2)c(C)c1Br (centres undefined) | . | -0.2 | 3 | . | .
CC1(C)CC(=O)C2=C(C1)NC(Nc1nc3ccccc3o1)=NC21CCCC1 | -1% | -0.2 | -7 | 0 | -20
COc1ccc(O)c(C=NCC(C)N=Cc2cc(OC)ccc2O)c1 (centres undefined) | -2% | -17 | 8 | -1 | .
C/C(=N/NC(=O)c1ccc(Br)s1)c1ccncc1 | . | -0.4 | 15 | . | .
CCOC(=O)c1cnc(Nc2ccc(OCC)cc2)nc1C | 0% | . | 8 | -15 | -42
O=C(NNS(=O)(=O)c1ccc([N+](=O)[O-])cc1)C1CCCCC1 | . | 0.1 | 2 | . | .
CC(c1ccccc1)N1C(=O)c2ccc(C(=O)Nc3ccc(Br)cc3C(=O)O)cc2C1=O (centres undefined) | . | 27 | -4 | . | .
O=C(CN1CCN(c2cccc(Cl)c2)CC1)N1CCCC1 | 2% | -3.0 | -12 | 4 | -30
Nn1cnnc1N/N=C/c1cc(Br)cc(Br)c1O | . | -5.7 | 30 | -32 | -33
C=CCSc1nc2nc(C)cc(C)n2n1 | -4% | -4.2 | -11 | 4 | -46
Cc1ccc2[nH]c(=O)c(CN(CC3CCCO3)C(=O)c3cccs3)cc2c1 (centres undefined) | . | -2.4 | -6 | . | .
O=C1Cc2ccccc2C(=O)N1c1ccccc1 | . | 0.8 | -1 | . | .

High-throughput results as filed in PubChem BioAssay.
